GLA inh pH 4.5: qHTS Assay for Inhibitors of Human alpha-Galactosidase at pH 4.5; AID 1467, 2008; Alpha-galactosidase A (Homo sapiens), P06280; purified enzyme, 4-MU-alpha-Gal fluorescence, pH 4.5; 230,000 tested, under 10 active; activity change, negative = inhibition, % at 105 µM; inconclusive = small, poorly fitted or top-dose-only inhibition, or a rising curve; inactive = flat fitted curve, though single readings scatter; no compound was filed as active;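 further: 0% = full activity with enzyme and -100% = basal without enzyme; dose as in the result columns while the protocol names 77 µM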
miR-21 reporter: qHTS Assay for Modulators of miRNAs and/orActivators of miR-21. 340,000 tested, under 10 active. Potency, µM (top dose mostly 38.3 µM), without a hit: at the highest dose reporter change, positive = more light. HeLa miR-21 FLuc reporter, luciferase, 48 h. AID 2288, 2010; active = well fitted rising curve with a large enough effect; inconclusive = small, poorly fitted or top-dose-only effect; inactive = no such curve, though single readings can be large or run the other way;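 further: % of control where 0% means no effect; miR-21 action dims this reporter so a rising signal means less miR-21 action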
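HeLa cells endogenously expressing miR-21, stably carrying CMV-driven firefly luciferase with a downstream miR-21 binding site, 2000 cells/well. Titrations up to approximately 40 uM, 48 hours; luciferase luminescence read.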
Rango dissoc inh: qHTS Assay for Inhibitors of RanGTP induced Rango (Ran-regulated importin-beta cargo) - Importin beta complex dissociation; Snurportin-1 (Homo sapiens) + GTP-binding nuclear protein Ran (Homo sapiens) + Importin …; Biochemical FRET Rango-importin beta, RanGTP-induced dissociation; Potency, µM (highest dose often 46.1 µM), for inactives: at the top dose activity change, negative = inhibition; 340,000 compounds, 0.071% hits; active means falling FRET ratio curve, often poorly fitted, with flat reads before Ran was added; inconclusive means other falling curves, or compound fluorescence or quenching; inactive means flat or rising ratio curve;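 further: potency means the concentration at half of the fitted maximal effect; % of control where 0% means no effect; nearly all actives have a fitted effect of over 45% in size; -100% = wells without RanGTP and RCC1; the record marks most hits as doubtful in a second field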
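Recombinant Rango FRET biosensor (EYFP–snurportin 1 IBB–cerulean CFP10) at 0.1 uM premixed with 0.25 uM importin beta in PBS, 1 mM DTT, 0.02% Tween-20, 0.1% BSA. Compound added 5 min; RanGTP-RCC1 (0.6 uM Ran, 2 mM GTP, 0.2 uM RCC1) then triggers release, read at 45 min.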
Rango-impB inh: qHTS Assay for Inhibitors of Rango (Ran-regulated importin-beta cargo) - Importin beta complex formation; Importin subunit beta-1 (Homo sapiens), Q14974; Rango CFP/YFP FRET sensor + importin beta, 45 min; Potency, µM (doses to about 92.2 µM), inactives show at the top dose inhibition of complex formation; 340,000 compounds, 0.031% hits; AID 540263, 2011; active = rising FRET ratio curve, often small or poorly fitted; inconclusive = mostly compound fluorescence or quenching in the first reads; inactive = flat curves in all reads;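 further: potency means the concentration at half of the fitted maximal effect; 0% = DMSO wells and 100% = buffer wells lacking importin beta; nearly all actives have a fitted effect of over 15% in size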
Target sequence (Q14974 whole entry, looked up): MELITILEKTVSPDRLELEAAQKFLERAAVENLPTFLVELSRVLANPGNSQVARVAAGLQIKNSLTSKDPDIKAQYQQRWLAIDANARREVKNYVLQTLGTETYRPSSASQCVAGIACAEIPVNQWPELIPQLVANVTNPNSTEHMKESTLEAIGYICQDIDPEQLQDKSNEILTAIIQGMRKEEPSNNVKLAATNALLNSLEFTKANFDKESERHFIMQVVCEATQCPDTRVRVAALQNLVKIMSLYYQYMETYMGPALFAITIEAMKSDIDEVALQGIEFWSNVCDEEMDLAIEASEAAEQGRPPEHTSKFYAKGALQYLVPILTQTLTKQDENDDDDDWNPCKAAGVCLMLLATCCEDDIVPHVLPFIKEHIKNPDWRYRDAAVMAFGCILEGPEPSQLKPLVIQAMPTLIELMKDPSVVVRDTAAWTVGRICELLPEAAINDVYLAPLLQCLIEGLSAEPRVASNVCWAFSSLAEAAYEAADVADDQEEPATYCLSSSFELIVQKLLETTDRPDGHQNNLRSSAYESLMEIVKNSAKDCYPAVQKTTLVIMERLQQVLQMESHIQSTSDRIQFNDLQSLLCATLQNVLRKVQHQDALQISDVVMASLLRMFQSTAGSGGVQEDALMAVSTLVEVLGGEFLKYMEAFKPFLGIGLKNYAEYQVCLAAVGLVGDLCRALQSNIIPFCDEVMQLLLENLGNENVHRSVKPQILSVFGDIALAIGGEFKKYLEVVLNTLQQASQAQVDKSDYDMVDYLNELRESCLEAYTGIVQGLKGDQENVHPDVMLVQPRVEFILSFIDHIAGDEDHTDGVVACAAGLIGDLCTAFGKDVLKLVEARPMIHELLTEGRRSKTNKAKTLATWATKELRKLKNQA
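FRET biosensor (snurportin 1 IBB flanked by EYFP and cerulean), 50 nM, with compound 5 min, then 0.125 microM importin beta in PBS, 1 mM DTT, 0.02% Tween-20, 0.1% BSA. CFP/YFP ratio read after 45 min at room temperature; pre-read flags interference.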
* marks the source's active call; other numbers are inactive results; ? = inconclusive; nt = not tested or not shown; & = joins results of further samples.

SMILES | GLA inh pH 4.5 | miR-21 reporter | Rango dissoc inh | Rango-impB inh
O=C(CS(=O)(=O)c1ccccc1)Nc1nc2ccccc2s1 | 5.3 | -25.4% | -5.1% | -0.1%
O=C(CNC(=O)OCc1ccccc1)NC1(C(=O)O)CCCC1 | nt | nt | 1.6% | -0.8%
O=C(NNC(=O)c1sc2cccc(Cl)c2c1Cl)Nc1ccccc1 | -3.2 | -7.3% | 6.5% | -3.3%
NC(=O)[C@@H]1CCNc2c(I)cc([N+](=O)[O-])cc2C(=O)N[C@@H](CCC(=O)O)C(=O)N[C@@H](CO)C(=O)N1 | 7.1 | -14.7% | 18.6% | 0.6%
Cc1ccc(C(=O)O/N=C2\CCCc3ccccc32)cc1 | -22.7 | -0.6% | 30.8% | -1.0%
CCOc1cc(N2CCOCC2)c(OCC)cc1NC(=O)c1nc2nccc(C)n2n1 | 5.2 | -6.7% | nt | nt
Cc1cc(NS(=O)(=O)N(C)C)ccc1C(C)C | -4.2 | -1.2% | -13.5% | -0.8%
Cn1c(=O)[nH]c(=O)c2c1nc(Br)n2CC(O)COc1ccc(Cl)cc1 (stereo not given) | -2.4 | 26.9% | -11.9% | 0.1%
CC(=O)NC(=S)Nc1ccc(S(=O)(=O)Nc2nc(C)cc(C)n2)cc1 | -3.6 | -6.9% | 8.2% | 8.9%
Cc1ccc(S(=O)(=O)N2CCCCC2)cc1NC(=O)C1CC(=O)N(c2ccc3c(c2)OCCO3)C1 (stereo not given) | nt | nt | 13.2% | -3.3%
O=C(NNC1=NS(=O)(=O)c2ccccc21)C1CC(=O)N(c2ccccc2)C1 (stereo not given) | -7.6 | -1.3% | -6.7% | -2.1%
Cc1cccc(NC(=O)CNC(=O)c2ccccc2Cl)n1 | nt | -16.0% | -18.3% | 2.8%
Cn1nnc(C(O)CNCc2cccs2)n1 (stereo not given) | 3.4 | 0.1% | -1.5% | -3.2%
CCc1c(C)sc(NC(=S)Nc2cccnc2)c1C(=O)OC | 0.4 | 0.2% | -1.7% | 2.1%
CN1CCC(=O)N([C@H](CO)c2ccccc2)CC1 | nt | -16.7% | -11.9% | 0.2%
Cc1cc(C)cc(Oc2nc(-c3ccccc3)cc(C)c2S(C)(=O)=O)c1 | -7.5 | 5.5% | 11.9% | -2.2%
O=C(c1cc(-c2ccncc2)nc2ccccc12)N1CCN(Cc2ccccc2)CC1 | nt | nt | 6.2% | 3.7%
CCOc1cccc2sc(N(CCN(C)C)C(=O)c3ccc4ccccc4c3)nc12 | nt | -1.9% | 14.3% | 7.7%
COc1ccc(/C=N/n2cnc3c([nH]c4ccccc43)c2=O)cc1CO | -1.3 | -1.2% | 15.9% | 0.0%
Cc1ccc(C(=O)CSc2ccc(-c3ccccc3)nn2)cc1 | 3.3 | -27.6% | 1.6% | -4.1%
Oc1ccc(/C=N/N2CCCCC2)cc1O | nt | -6.0% | ? | -3.6%
CCN(CC)C(=O)COc1ccc(-c2nnc(Nc3ccc(OC)c(C(=O)NC)c3)c3ccccc23)cc1 | -6.4 | 5.4%&10.0% | 5.7% | 6.4%
COc1cc2nc(C3CCC3)n(NC(=O)C(OC(C)=O)c3ccccc3)c(=O)c2cc1OC (stereo not given) | -2.2 | 2.0% | -2.8% | -0.2%
COc1ccc(-n2c(=S)[nH]c3sc4c(c3c2=O)CCN(C)C4)cc1 | 1.1 | -9.2% | nt | nt
COc1ccc(C2CCCCCN2C(=O)C2CCN(S(=O)(=O)c3cccc(C(C)=O)c3)CC2)cc1 (stereo not given) | nt | nt | -5.2% | -0.6%

Rewritten with values under each structure: part of the list above
Values run as follows: GLA inh pH 4.5, miR-21 reporter, Rango dissoc inh, Rango-impB inh
- COc1cc2nc(C3CCC3)n(NC(=O)C(OC(C)=O)c3ccccc3)c(=O)c2cc1OC (stereo not given)
→ -2.2, 2.0%, -2.8%, -0.2%
- CC(=O)NC(=S)Nc1ccc(S(=O)(=O)Nc2nc(C)cc(C)n2)cc1
→ -3.6, -6.9%, 8.2%, 8.9%
- CN1CCC(=O)N([C@H](CO)c2ccccc2)CC1
→ nt, -16.7%, -11.9%, 0.2%
- CCOc1cc(N2CCOCC2)c(OCC)cc1NC(=O)c1nc2nccc(C)n2n1
→ 5.2, -6.7%, nt, nt
- COc1ccc(C2CCCCCN2C(=O)C2CCN(S(=O)(=O)c3cccc(C(C)=O)c3)CC2)cc1 (stereo not given)
→ nt, nt, -5.2%, -0.6%
- Cn1c(=O)[nH]c(=O)c2c1nc(Br)n2CC(O)COc1ccc(Cl)cc1 (stereo not given)
→ -2.4, 26.9%, -11.9%, 0.1%

By substructure, those above with a thiophene ring, fused or not (4)
SMILES | GLA inh pH 4.5 | miR-21 reporter | Rango dissoc inh | Rango-impB inh
O=C(NNC(=O)c1sc2cccc(Cl)c2c1Cl)Nc1ccccc1 | -3.2 | -7.3% | 6.5% | -3.3%
Cn1nnc(C(O)CNCc2cccs2)n1 (stereo not given) | 3.4 | 0.1% | -1.5% | -3.2%
CCc1c(C)sc(NC(=S)Nc2cccnc2)c1C(=O)OC | 0.4 | 0.2% | -1.7% | 2.1%
COc1ccc(-n2c(=S)[nH]c3sc4c(c3c2=O)CCN(C)C4)cc1 | 1.1 | -9.2% | nt | nt

Additional records follow:
SMILES | GLA inh pH 4.5 | miR-21 reporter | Rango dissoc inh | Rango-impB inh
COc1ccc(Cn2c(C(F)(F)F)ccc(C(N)=O)c2=O)cc1 | 0.7 | -1.1% | 15.8% | 2.2%
CC1(C)Cc2c(cnn2-c2cccc(F)c2)C(NC(=O)c2cc[n+]([O-])cc2)C1 (stereo not given) | nt | 1.4% | 0.0% | -1.6%
COc1ccc(NC(=O)C2CCN(c3ncnc4c3nc3n4CCCCC3)CC2)cc1Cl | nt | -8.6% | 2.6% | -0.1%
O=C(CSc1ncn[nH]1)NCCc1ccccc1 | 2.6 | 0.7% | -2.5% | 2.4%
O=C(CNS(=O)(=O)c1ccccc1)OCC(=O)c1ccc([N+](=O)[O-])cc1 | 4.4 | -6.8% | -8.1% | -0.1%
Cc1c(Cl)cccc1-n1cnc(=O)c2ccccc21 | nt | nt | -3.8% | -0.4%
CCn1nc(C(=O)Nc2cccc3ccccc23)c(Cl)c1Cl | -12.0 | -9.1% | -6.3% | -0.6%
O=C1C(c2ccccc2)C2C=CC(C2)N1O (stereo not given) | nt | nt | 6.9% | 1.5%
COCCCN(C(=O)CSCC(=O)Nc1ccc(C)cc1)c1c(N)n(Cc2ccccc2)c(=O)[nH]c1=O | nt | nt | -12.3% | -0.5%
COc1ccc(NC(=O)[C@H](Cc2c[nH]c3ccccc23)NC(=O)[C@@H]2Cc3ccccc3CN2)cc1 | nt | 13.3% | -22.2% | -2.8%
Cc1ccc(-c2nnc(OCc3cccnc3)c3ccccc23)cc1 | -10.3 | -7.6% | -6.8% | 3.0%
CC(C)(C)NC(=O)CSc1nnc(SCC(=O)NC(C)(C)C)s1 | 2.8 | 1.1% | 19.1% | -2.2%
COc1ccc(Cl)cc1N1C(=N)SCC1=O | 1.0 | 2.8% | 14.0% | -0.4%
COc1ccc(N2CCN(C(=O)COC(=O)c3ccccc3OCc3ccc(F)cc3)CC2)cc1 | nt | nt | 0.1% | ?
Cc1ccc(N2CC(NC(=O)C(=O)c3c[nH]c4ccccc34)CC2=O)cc1C (stereo not given) | nt | nt | -0.5% | 4.6%
CCC(C)c1ccc(NC(=O)COC(=O)C2=COCCO2)cc1 (stereo not given) | 2.2 | -30.6% | -0.1% | 0.2%
O=C(CN1C(=O)NC2(CCCC2)C1=O)Nc1cc(S(=O)(=O)N2CCOCC2)ccc1OCC(F)(F)F | nt | -0.1% | -7.3% | 5.9%
O=C(CSc1nc2nc(-c3cccs3)cc(C(F)(F)F)c2c(=O)[nH]1)Nc1ccc(F)c(F)c1 | -0.3 | ? | -16.8% | 2.1%
CCc1nc(N2CCN(C(=O)c3ccco3)CC2)c(C#N)c2c1COC(C)(C)C2 | nt | -1.0% | 13.4% | 0.5%
Oc1cccc(Nc2nc(N3CCOCC3)nc(N3CCOCC3)n2)c1 | nt | 19.4% | -9.6% | 5.9%
NC(=O)c1cc(Sc2ccccc2)nc2ccccc12 | nt | nt | 12.8% | 0.2%
Nc1nc2n(n1)C(c1cccs1)CC(c1ccc(Br)cc1)N2 (stereo not given) | -3.5 | -10.7% | 2.8% | -1.1%
COc1ccc(CN(C)CCCn2cnc3c(OCc4ccccc4)ncnc32)cc1 | nt | nt | -9.7% | 1.2%
O=C(CCS(=O)(=O)c1ccc(Br)s1)Nc1ccccc1Br | -10.7 | -0.9% | -2.5% | -1.4%
COc1ccc(CNC(=O)Nc2ccc(C)c(C)c2)cc1 | 7.1 | -20.7% | -10.3% | 1.7%
SMILES | GLA inh pH 4.5 | miR-21 reporter | Rango dissoc inh | Rango-impB inh
COc1cccc(-c2nn(C)c3sc(C(=O)N4CCOCC4)cc23)c1 | 1.5 | 0.8% | 1.0% | 1.4%
Cc1ccc(NC(=O)CSc2nc3ccccc3c(=O)n2CCCC(=O)NCC2CCCO2)cc1 (stereo not given) | nt | 3.6% | -8.3% | 2.4%
Cc1ccc(S(=O)(=O)N(CCCO)Cc2cc3c(C)ccc(C)c3[nH]c2=O)cc1 | 7.8 | -5.2% | -0.5% | -1.2%
COc1cc(/C=N/NC(=O)c2ccc(CN(C)S(=O)(=O)c3ccc(C)cc3)cc2)ccc1O | -2.9 | 13.0% | -15.1% | 0.1%
c1ccc(-c2cc(CSc3nc4ccccc4[nH]3)on2)cc1 | -7.1 | -2.5% | -0.3% | -0.6%
O=C(Nc1ccccc1-c1ccccc1)C(c1ccccc1)c1ccccc1 | 0.1 | -11.0% | -8.2% | 2.0%
Cc1ccc(C(=O)N/C(=C\c2ccco2)C(=O)NCCCn2ccnc2)cc1 | 0.8 | -10.4% | 10.1% | 2.4%
O=C(COc1nncc2ccccc12)Nc1c(F)c(F)c(F)c(F)c1F | 0.2 | 4.9% | -0.4% | -3.2%
CN(CC(=O)Nc1ccc(Cl)c(C(F)(F)F)c1)C(=O)c1ccc2c(c1)OCCO2 | nt | nt | 16.8% | -0.9%
O=[N+]([O-])c1ccccc1CSc1nc2ccccc2o1 | 4.8 | -121.1% | 9.5% | -0.3%
COc1ccccc1/C(C)=N/NC(=O)c1nnn(-c2nonc2N)c1C(C)C | nt | -3.2% | 12.9% | -0.7%
CN1CCCN(C(=O)c2c(F)cccc2Cl)CC1 | nt | 0.6% | -4.9% | -0.5%
O=C1CCCC(=O)C1Sc1ccc(Cl)cc1 | 1.9 | -8.8% | 22.4% | -3.1%
Cc1ccccc1N1CCN(CCCCN2C(=O)C3CCCN3C2=O)CC1 (stereo not given) | 4.3 | -8.7% | 15.6% | 3.3%
CC1(c2ccccc2)NC(=O)N(NC(=O)COC(=O)c2cc(Br)ccc2O)C1=O (stereo not given) | nt | nt | -1.3% | -0.1%
COc1ccc(NC(=O)C2=CC=CN3CCS(=O)(=O)N=C23)c(OC)c1 | nt | nt | 21.9% | 0.8%
CCn1cc(C(=O)N2CC=C(c3ccccc3)CC2)c(=O)c2ccc(C)nc21 | -1.5 | -5.3% | -14.5% | 0.3%
Cc1cc(NC(=O)COC(=O)c2oc3c(ccc4ccccc43)c2C)no1 | 5.8 | 0.0% | -0.6% | -0.3%
CCN(CC)S(=O)(=O)c1ccc2c(c1)nc(CCC(=O)O)n2C | -0.3 | -3.3% | 77.6% | -2.1%
CCN(CC(=O)NCc1ccc(Cl)cc1)C(=O)CN1C(=O)NC(C)(c2ccccc2)C1=O (stereo not given) | nt | -1.7% | 0.4% | -0.7%
O=S(=O)(NCC1CCCO1)c1ccc(S(=O)(=O)N(Cc2ccccc2F)C2CCCCC2)cc1 (stereo not given) | nt | nt | -1.5% | -0.2%
NC(=O)CSc1nnc(SCc2ccc(F)cc2)s1 | 0.8 | 10.6% | 18.6% | 2.7%

Screening results: PubChem BioAssay, National Center for Advancing Translational Sciences (NCATS)

Not all compounds are listed. The share of hits here may be higher or lower than overall.
